Source: PubChem (several laboratories)
CSC inhib: blocks cancer stem cells | AID 2717 | inhibition, % at 7.5 µM | 1.1% of 300,000 active | cancer stem cell-like cells viability, luminescence;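 active = mean at 75% or more and at least half the replicates too; inconclusive = mean and replicates disagree; tested in HMLE shEcad cells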;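 note: 0% = median of negative and 100% = median of positive control wells; the first replicate is given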
PABP FP inh: PABP-poly(A) binding inhibition; P11940; PABP-poly(A) RNA binding, fluorescence polarization; inhibition, % at 35 µM; 1% of 290,000 active;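 active = 50% or more with normal probe brightness, or confirmed in later tests; inconclusive = above 50% with abnormal brightness, or retests that disagree; inactive = below 50% or failed in later tests; about a fifth of its hits are not listed in these tables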;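 note: calls also rest on retests at 20 µM and on dose response follow-up; controls were probe without protein and protein plus probe with vehicle; some compounds called inactive have numbers as strong as hits; many hits fall short of the cut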
eIF4H FP inh: inhibitors of RNA binding by human eIF4H. eIF4H fluorescence polarization binding assay. 0.94% of 290,000 active. inhibition, % at 35 µM. AID 2012;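 active = 50% or more with normal probe brightness, or confirmed in later tests; inconclusive = above 50% with abnormal brightness, or retests that disagree; inactive = below 50% or failed in later tests; about a fifth of its hits are not listed in these tables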;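 note: calls also rest on retests at 20 µM and on dose response follow-up; 0% = protein and probe with vehicle and 100% = probe without protein; strong numbers were not always called active; many hits fall short of the cut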
MT1-MMP act inh: MT1-MMP (human) activation inhibition; 0.061% of 360,000 active; P50281; HT1080 RFP-PRO-GFP cells, GFP/RFP ratio fluorescence, overnight; percent of plate control window, DMSO zero; AID 651647; GFP/RFP ratio change, % at 20 µM;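 active = GFP/RFP ratio change of at least 30% with cell ATP level not reduced by more than half and red fluorescence within 50% of control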; note: strong numbers were not always called active
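Test system: HT1080 cells expressing an RFP-PRO-GFP fluorescent reporter construct / Compound dosing: single-point 20 µM compound, 1% DMSO / Schedule: cells overnight before dosing, compound overnight, 37 °C, 5% CO2 / Evaluation: GFP/RFP fluorescence ratio / Control set: DMSO and RFP-L50D-GFP cell wells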
Rce1 inh: blocks yeast Ras-converting enzyme; yeast membranes, quenched prenylated peptide cleavage fluorescence; calls only; 0.27% of 290,000 active;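 active = fall in fluorescence gain of 50% or more versus controls, with final raw signal at or below 3038400; inconclusive = same 50% fall but final raw signal above 3038400; inactive = fall in fluorescence gain under 50%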;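 note: plate controls were neutral control wells for no effect and wells lacking membranes for full effect; tested at 10 µM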
Target sequence (Q03530 whole entry, looked up): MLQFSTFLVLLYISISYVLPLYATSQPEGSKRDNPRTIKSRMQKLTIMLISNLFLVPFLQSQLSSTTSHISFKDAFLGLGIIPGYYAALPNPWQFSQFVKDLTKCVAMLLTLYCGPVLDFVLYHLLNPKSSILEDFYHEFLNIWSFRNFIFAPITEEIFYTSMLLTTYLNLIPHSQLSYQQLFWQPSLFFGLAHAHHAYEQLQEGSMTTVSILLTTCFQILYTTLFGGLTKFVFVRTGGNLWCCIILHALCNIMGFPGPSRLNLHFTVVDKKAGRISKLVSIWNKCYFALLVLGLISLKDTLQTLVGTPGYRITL
Yeast UUG start: yeast start codon fidelity modulation | S. cerevisiae UUG-firefly luciferase reporter, luminescence/redox ratio | activity score, % at 18.7 µM | 0.13% of 350,000 active;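 active = replicate mean at a twofold rise or more, about +100% in these data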;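 note: firefly luciferase made from a UUG start codon reports start codon fidelity; reporter light over untreated wells divided by growth signal over untreated wells; some hits fall short of that in this replicate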
Env fusion inh: inhibitors of HIV Env-mediated cell fusion; HeLa-JRFL Env/CEM21 cell fusion, luciferase; 1.1% of 360,000 active; inhibition, % at 12.3 µM;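 active = mean replicate inhibition score of at least 50 and every replicate individually at or above 50; inconclusive = only one of the two criteria met; inactive = mean below 50 and not all replicates reaching 50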;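 note: 0% = plate neutral controls and 100% = maraviroc near 300 nM; one replicate is shown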
eIF4H FP inh retest: also measured in eIF4H FP inh; calls as there; inhibition, %; compound at 20 µM; confirmation average;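 mean of two retest wells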
PABP FP inh retest: also measured in PABP FP inh; calls as there; inhibition, %; compound at 20 µM; confirmation repeats;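 mean of two retest wells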
MT1-MMP act inh RFP: further read-out of MT1-MMP act inh, marked with its call; RFP signal change, %; measured here: RFP expression control read;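 0 = vehicle wells; hits needed this value within 50% of zero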
Numbers without * were called inactive; i = inactive; ? = inconclusive; . = not tested or not shown.

SMILES	CSC inhib	PABP FP inh	eIF4H FP inh	MT1-MMP act inh	MT1-MMP act inh RFP	Rce1 inh	Yeast UUG start	Env fusion inh	others
COc1ccc(/C=N/OCc2ccccc2C#N)c(OC)c1	.	12	-12	-1	2	i	-9	-15
COc1ccc(C(=O)Nc2ccc(N3CCN(C)CC3)cc2)cc1[N+](=O)[O-]	13	5	2	-1	1	i	.	-12
O=C(O)/C=C/S(=O)(=O)c1ccc2ccccc2c1	-8	-6	-13	-2	-2	i	-20	0
CCn1c2ccccc2c2cc(C3C(C#N)=C(N)Oc4n[nH]c(COC)c43)ccc21 (stereo not given)	18	-13	-2	-7	-2	i	-18	11
CCOC(=O)CC1(NC(=O)C2CCC(=O)N(CCc3ccc(OC)cc3)C2)CCCCC1 (stereo not given)	-9	-11	-6	-2	1	i	0	-23
Cc1c(N2C(=O)CSC2c2ccc(F)cc2)c(=O)n(-c2ccccc2)n1C (stereo not given)	-4	9	-8	-1	4	i	.	-10
CCOc1ccc(CNc2nc3ccccc3n2C)cc1	8	4	-2	2	0	i	-3	-32
COc1ccc(CCNC(=O)C2CCCCC2C(=O)O)cc1OC (stereo not given)	-4	-1	7	.	.	.	.	.
O=C(NC1CCCCC1)C(c1ccco1)N(CCc1ccccc1)C(=O)C(F)(F)F (stereo not given)	19	2	-5	-12	-11	i	2	-71
COC(=O)Cc1ccc(NC(=S)NCCSc2ccc(Cl)cc2)cc1	-6	-12	1	3	3	i	.	1
COC(=O)c1sc(S(=O)(=O)N2CCCCC2C(=O)O)c(C(=O)OC)c1C (stereo not given)	-1	1	-2	-5	3	i	-10	.
Cc1cccc(C)c1OCc1cc(C(=O)N2CC3C[C@@H]4CC2C[C@H](C3)C4)no1	107*	3	-12	-4	-5	i	-7	-32
O=C(CSC1=NCCS1)c1ccc(Cl)cc1	0	-4	2	-1	0	i	.	11
COc1ccc(Cn2c(O)c(C=Nc3ccc(OC)cc3)c3ccccc3c2=O)cc1	23	-4	-2	-11	-7	i	-10	0
Cc1cccc(C)c1NC(=O)CN1N=NC2C(=O)N(c3cccc(Cl)c3)C(=O)C21 (stereo not given)	8	2	-9	-3	7	i	2	.
CSc1nnc(C2CCCN(CC(=O)Nc3ccccc3N3CCOCC3)C2)n1C(C)C (stereo not given)	-10	-9	-8	-1	3	i	-13	3
CSc1nnc(N2C(=O)C(O)=C(C(=O)c3ccco3)C2c2ccccc2)s1 (stereo not given)	-13	?	?	-66	5	i	-20	-5
O=S(=O)(N/N=C1\CCCc2ccccc21)c1ccccc1	-8	.	.	-1	-2	.	-13	-3
Cc1cc(Cl)cc(Cl)c1CNc1c([N+](=O)[O-])c(=O)oc2ccccc12	14	?	-5	4	2	i	.	-16
CCCCn1c(SCC(=O)N(C)C)nnc1-c1ccncc1	-11	-10	-4	2	6	i	-10	0

Taken from the entries so far (16 entries):
SMILES	CSC inhib	PABP FP inh	eIF4H FP inh	MT1-MMP act inh	MT1-MMP act inh RFP	Rce1 inh	Yeast UUG start	Env fusion inh	others
CCOC(=O)CC1(NC(=O)C2CCC(=O)N(CCc3ccc(OC)cc3)C2)CCCCC1 (stereo not given)	-9	-11	-6	-2	1	i	0	-23
Cc1c(N2C(=O)CSC2c2ccc(F)cc2)c(=O)n(-c2ccccc2)n1C (stereo not given)	-4	9	-8	-1	4	i	.	-10
CCOc1ccc(CNc2nc3ccccc3n2C)cc1	8	4	-2	2	0	i	-3	-32
COc1ccc(CCNC(=O)C2CCCCC2C(=O)O)cc1OC (stereo not given)	-4	-1	7	.	.	.	.	.
O=C(NC1CCCCC1)C(c1ccco1)N(CCc1ccccc1)C(=O)C(F)(F)F (stereo not given)	19	2	-5	-12	-11	i	2	-71
COC(=O)Cc1ccc(NC(=S)NCCSc2ccc(Cl)cc2)cc1	-6	-12	1	3	3	i	.	1
COC(=O)c1sc(S(=O)(=O)N2CCCCC2C(=O)O)c(C(=O)OC)c1C (stereo not given)	-1	1	-2	-5	3	i	-10	.
Cc1cccc(C)c1OCc1cc(C(=O)N2CC3C[C@@H]4CC2C[C@H](C3)C4)no1	107*	3	-12	-4	-5	i	-7	-32
O=C(CSC1=NCCS1)c1ccc(Cl)cc1	0	-4	2	-1	0	i	.	11
COc1ccc(Cn2c(O)c(C=Nc3ccc(OC)cc3)c3ccccc3c2=O)cc1	23	-4	-2	-11	-7	i	-10	0
Cc1cccc(C)c1NC(=O)CN1N=NC2C(=O)N(c3cccc(Cl)c3)C(=O)C21 (stereo not given)	8	2	-9	-3	7	i	2	.
CSc1nnc(C2CCCN(CC(=O)Nc3ccccc3N3CCOCC3)C2)n1C(C)C (stereo not given)	-10	-9	-8	-1	3	i	-13	3
CSc1nnc(N2C(=O)C(O)=C(C(=O)c3ccco3)C2c2ccccc2)s1 (stereo not given)	-13	?	?	-66	5	i	-20	-5
O=S(=O)(N/N=C1\CCCc2ccccc21)c1ccccc1	-8	.	.	-1	-2	.	-13	-3
Cc1cc(Cl)cc(Cl)c1CNc1c([N+](=O)[O-])c(=O)oc2ccccc12	14	?	-5	4	2	i	.	-16
CCCCn1c(SCC(=O)N(C)C)nnc1-c1ccncc1	-11	-10	-4	2	6	i	-10	0

Other entries follow:
SMILES	CSC inhib	PABP FP inh	eIF4H FP inh	MT1-MMP act inh	MT1-MMP act inh RFP	Rce1 inh	Yeast UUG start	Env fusion inh	others
CCCCN1C(=O)C(=O)NC[C@@H]1C(C)O (stereo not given in full)	-12	10	-5	6	4	i	-22	-24
COc1cc(-n2c(=O)c3ccccc3n(Cc3ccccc3)c2=O)cc(OC)c1OC	-5	-1	2	-3	0	.	-19	-16
COc1cc(NC(=S)NC(=O)c2cccs2)ccc1NC(=O)C(C)C	-9	4	2	4	0	i	-19	-5
Cc1ccc(-n2ncc3c(=O)n(CC#N)cnc32)cc1	13	-9	2	6	0	i	1	-134
Cc1cnc(C(=O)OC(C)C(=O)Nc2cccc3ccccc23)cn1 (stereo not given)	5	.	.	-3	0	i	-7	3
Cc1ccc(SCCC(=O)Nc2cc(C)on2)cc1	1	4	-8	-3	-4	i	-23	15
CN(C(=O)COC(=O)c1ccccc1NCCO)C1CCS(=O)(=O)C1 (stereo not given)	.	.	.	5	1	i	-21	-10
CCCn1nnnc1NC(=O)c1cccs1	4	2	4	6	9	i	9	-22
CCn1c2ccc(C)cc2c2nnc(NN)nc21	4	1	0	10	6	i	-8	-83
COC(=O)/C(C(C)=O)=C(/C=C/C=C/N(C)C)N(C)C	-9	72*	80*	-3	8	i	-15	.
Cc1ccc(C)c2[nH]c(=O)c(CN(CCN3CCCC3)C(=O)Nc3cccc(Cl)c3)cc12	.	-21	3	-6	2	i	.	.
C=C1CCN(C(C)C(=O)OC)S(=O)(=O)c2ccccc21 (stereo not given)	-2	-4	6	6	-2	i	-16	-10
CCNC(=O)c1ccc(C23CC4CC(CC(C4)C2)C3)o1	48	-5	-2	-2	-8	i	-6	8
O=C(NCC1CC1(Cl)Cl)Nc1ccc(Cl)c(Cl)c1 (stereo not given)	73	5	7	-2	-3	i	-9	4
COc1cc(OC)cc(C(=O)NCCC(c2ccccc2)c2ccccc2)c1	6	3	-1	2	-1	i	-15	-4
CC(C)Sc1cc(N2CCCC2)nc(-c2ccc(F)cc2)n1	0	-14	2	0	4	i	-14	.
CCc1c(C)sc(NC(=O)C2CC2c2ccccc2)c1C(N)=O (stereo not given)	27	-4	-11	6	2	i	-3	-57
COc1cccc(/C=N/NC(=O)c2cc(-c3ccccn3)nc3ccccc23)c1O	17	.	.	-9	-8	.	-30	3
COC(=O)c1ccc(CSc2nnc(-c3ccncc3)o2)cc1	-2	9	-2	7	-3	i	1	11
Cc1nc2ccccc2c(=O)n1CCc1ccc(O)cc1	5	3	-4	3	0	i	-3	-7
Cc1cc2oc(=O)cc(CN3CCCc4ccccc43)c2cc1C	-8	28	18	-67	16	i	-6	-141
COCc1cc(C)nc(Nc2ccccc2OC)c1C#N	-9	1	-3	1	0	i	-8	-10
COc1cc2c(cc1OC)CN(C(=O)c1cc3ccccc3oc1=O)CC2	49	-13	-10	3	-8	i	-14	-99
CN1CCN(C(=O)C2CCCN(S(=O)(=O)c3ccc(Cl)cc3)C2)CC1 (stereo not given)	-3	8	13	1	-1	i	3	-28
CC(=O)CSc1nnc(-c2ccc(S(=O)(=O)N3CCOCC3)cc2)n1C	5	-11	-4	2	3	i	-2	4
CCOc1ccc(C(C)=O)cc1CC(C(N)=O)C(N)=O	3	-8	-3	4	3	i	-9	.
Cn1ncc(Cl)c1C(=O)N1CCN(S(=O)(=O)c2ccc(Cl)s2)CC1	-1	5	0	-3	0	i	-15	.
COCCN(C(=O)c1csnn1)C(C(=O)NC1CCCC1)c1ccccc1F (stereo not given)	-3	4	-2	1	4	.	.	-1
C#CC(C)OCC1CNC(=S)O1 (stereo not given)	.	.	.	0	-1	.	0	-1
COc1cc([N+](=O)[O-])cc(CN2CCCCC2)c1O	1	-3	-3	8	-2	i	.	.
O=S(=O)(Nc1cccc(-c2ccc(N3CCCCCC3)nn2)c1)c1cccc(F)c1	30	0	-11	1	-8	i	-22	-13
Cc1ccc(N(CC2CO2)S(=O)(=O)c2ccc(C)cc2)cc1 (stereo not given)	-7	-2	-4	2	2	i	.	7
CCC(NC(=O)c1ccncc1)c1ccccc1 (stereo not given)	-12	-7	-9	-2	-1	i	7	5
CCCn1nnc(NC(=S)NC(=O)c2ccccc2OC)n1	-20	.	.	-2	1	.	-6	.
Cc1ccc(-n2nnnc2SCC(=O)Nc2c(C)n(C)n(-c3ccccc3)c2=O)cc1	-9	3	-4	1	-3	i	3	.
Cc1ccc2c(c1)C(=O)C(=O)N2Cc1ccccc1	30	.	.	2	7	.	-15	-27
O=C(C(Cl)Cl)N1c2ccccc2OCC1c1ccccc1 (stereo not given)	12	10	0	1	-13	i	15	20
CCCCCCC(=O)NNC(=O)c1c(O)c2ccccc2n(CCC)c1=O	22	-3	19	10	9	i	.	-9
C=CCn1c(Cc2csc(N)n2)nnc1SCC(=O)Nc1ccc(C(=O)OCC)cc1	-14	-4	5	4	-1	i	-31	-12
COc1ccc(CC(=O)Nc2ccccc2N2CCCC2)cc1OC	.	-5	0	0	-2	i	-5	8
COc1ccccc1NC(=O)Cn1cnc2sc(C(=O)Nc3cc(OC)c(OC)c(OC)c3)c(C)c2c1=O	-1	-9	-5	-3	-17	i	-12	-1
Cc1cccc(C)c1C(O)c1ncc(-c2ccccc2Cl)[nH]1 (stereo not given)	.	.	.	0	3	.	-12	-9
C=CCn1c(CSc2ccccc2[N+](=O)[O-])n[nH]c1=S	-17	21*	84*	-4	0	i	.	-10	eIF4H FP inh retest=88*;PABP FP inh retest=84*
Cc1ccc2[nH]cc(C(=O)CCl)c2c1	13	34	-19	-8	-3	i	.	8
C#CCOCCOCCOCCNc1nc(N2CCN(C(=O)C([C@@H](C)CC)n3cc(C(N)CO)nn3)CC2)nc(N2CCN(C(=O)[C@H](CCC(=O)O)n3cc(C(N)Cc4ccc(O)cc4)nn3)CC2)n1 (stereo not given in full)	.	3	-8	.	.	i	.	.

A portion of the library; rates above refer to the full screens.
